Screening data deposited in PubChem BioAssay by ICCB-Longwood Screening Facility, Harvard Medical School.
GIV Gai3 FP – inhibitors of GIV GBA-motif binding to rat Galpha-i3; 0.42% of 210,000 active; P08753; percent of control (FP), % (concentration not given with the values); Galpha-i3/FITC-GIV peptide fluorescence polarization, 90 min; stronger effect = lower value; scaled: aluminum fluoride 0%, vehicle 100%;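 active = replicate mean at 85% of control or lower, very high polarization wells dropped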;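 also: wells of about 15 µL received 100 nL stock; the first replicate is given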
Target sequence (P08753 whole entry, looked up): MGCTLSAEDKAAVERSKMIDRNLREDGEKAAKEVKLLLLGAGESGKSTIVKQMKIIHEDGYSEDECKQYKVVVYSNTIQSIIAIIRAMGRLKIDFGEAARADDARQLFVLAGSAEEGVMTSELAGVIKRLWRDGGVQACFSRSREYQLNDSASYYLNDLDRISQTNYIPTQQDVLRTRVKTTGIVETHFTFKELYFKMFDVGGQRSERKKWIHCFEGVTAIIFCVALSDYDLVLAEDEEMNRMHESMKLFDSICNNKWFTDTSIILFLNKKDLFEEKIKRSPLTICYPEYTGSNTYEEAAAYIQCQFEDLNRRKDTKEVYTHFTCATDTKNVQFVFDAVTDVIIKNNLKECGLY
Starred values were filed as active, the others as inactive; & = joins results of further samples. Some of the compounds tested; count on the stated rates, not on these rows.

compound,GIV Gai3 FP
CC(C)Cn1c(=O)c(C(=O)Nc2nc3ccc(F)cc3s2)c(O)c2ccccc21,99
Cc1ccc(C(=O)N/C(=C/c2ccc(N(C)C)cc2)C(=O)NCc2ccco2)cc1,107
Cc1nnc(-c2c(C)[nH]c(C)c2S(=O)(=O)N2CCCCCC2)o1,108
Cc1csc(-c2cc(S(=O)(=O)NCc3ccc(N(C)C)cc3)c(C)s2)n1,127
Cc1cc(C2CCCN2S(=O)(=O)c2ccc(Br)cc2)no1 (centres undefined),94
Cc1cnc(NC(=O)c2c(O)c3cccc4c3n(c2=O)CC4)s1,109
Cc1c(C(=O)Nc2cccc(C(F)(F)F)c2)sc2ncn(CC(=O)Nc3cccc(C(F)(F)F)c3)c(=O)c12,114
CCOc1ccc(-c2csc(C)n2)cc1S(=O)(=O)N1CCC2(CC1)OCCO2,103

Carrying on:
compound,GIV Gai3 FP
Cc1ccc(OCCn2c(NC(=O)c3ccco3)nc3ccccc32)cc1,105
O=C(Nc1ccc(Br)cc1F)C1CCCN(S(=O)(=O)c2cccc3cccnc23)C1 (centres undefined),103
CCCCCCCOc1ccc(C(c2c(C)[nH]n(-c3ccccc3)c2=O)c2c(C)[nH]n(-c3ccccc3)c2=O)cc1,82*
COc1cccc(-c2nnc(-c3cc4cc(Br)ccc4oc3=O)o2)c1,105
Cc1ccc(-c2csc(-c3cc4ccc(O)cc4oc3=O)n2)cc1C,183
CCc1cc2c(NCc3ccc(F)cc3)ncnc2s1,99
O=S(=O)(NC1CCCCCC1)c1ccc(-c2cnc(C3CC3)o2)s1,106
Cc1ccc(N(CC(=O)NCCCC2CCCCC23OCCO3)S(=O)(=O)c2ccccc2)cc1C (centres undefined),119

Remaining list, next part:
compound,GIV Gai3 FP
COc1ccc(Cl)cc1S(=O)(=O)c1cnc(N2CCOCC2)nc1N,108
CCOC(=O)c1c(NC(=O)c2ccccc2)sc2c1CCN(C(=O)OCC)C2,110
Cn1ccnc1Sc1nc(Nc2ccccc2)nc(Nc2ccccc2)n1,105
c1cn(Cc2nc(-c3ccc4c(c3)OCO4)no2)cn1,115
OC(CN1CCN(c2ccccc2)CC1)c1ccc2c(c1)OCO2 (centres undefined),107
O=C(Cn1c2ccccc2n2c(=O)cc(-c3ccc(Cl)cc3)nc12)Nc1ccc(F)cc1F,103
O=C(O)c1cccnc1SCc1ccccc1F,108
CCCC1(CC)NC(=S)N(c2cccc(C)c2C)N1 (centres undefined),111

Single values from above.
Under GIV Gai3 FP, `CCCC1(CC)NC(=S)N(c2cccc(C)c2C)N1` (centres undefined) is listed with 111
Under GIV Gai3 FP, `c1cn(Cc2nc(-c3ccc4c(c3)OCO4)no2)cn1` is listed with 115
Under GIV Gai3 FP, `CCOC(=O)c1c(NC(=O)c2ccccc2)sc2c1CCN(C(=O)OCC)C2` is listed with 110
Under GIV Gai3 FP, `O=C(O)c1cccnc1SCc1ccccc1F` is listed with 108
Under GIV Gai3 FP, `Cn1ccnc1Sc1nc(Nc2ccccc2)nc(Nc2ccccc2)n1` is listed with 105
Under GIV Gai3 FP, `O=C(Cn1c2ccccc2n2c(=O)cc(-c3ccc(Cl)cc3)nc12)Nc1ccc(F)cc1F` is listed with 103
Under GIV Gai3 FP, `COc1ccc(Cl)cc1S(=O)(=O)c1cnc(N2CCOCC2)nc1N` is listed with 108

Carrying on.
compound,GIV Gai3 FP
COc1ccc(Cn2cccc(S(=O)(=O)N3CCCC3)c2=O)cc1F,101
COc1ccc(C2Nc3ccccc3C(=O)N2NC(=O)c2ccc([N+](=O)[O-])cc2)cc1 (centres undefined),110
CCOC(=O)C1(C)C=C(Nc2ccc(OC)cc2)C(=O)N1c1ccc(OC)cc1 (centres undefined),104
Cc1cccc(N2CC(O)(c3ccc(C)cc3C)[N+]3=C2SCCC3)c1 (centres undefined),103
CC1=C(C(=O)Nc2ccc(C)cc2C)C(c2ccccc2Br)NC(=O)N1 (centres undefined),101
CCOc1cc(/C=C2/C(=N)N3C(c4ccccc4)=CSC3=NC2=O)ccc1OCc1ccccc1,102
COc1ccccc1CNC(=O)C1(C)Cc2ccccc2C(=O)N1c1cccc(C(C)C)c1 (centres undefined),105
CCc1cc(Sc2ccc(N)cc2)n2nc(C)nc2n1,98

Other records follow:
compound,GIV Gai3 FP
CCOCCn1cnc2sc(C(=O)NC3CCCCC3)c(C)c2c1=O,112
O=S(=O)(NCC1(c2ccccc2)CCCOCC1)c1ccc(Cl)cc1 (centres undefined),98
COC(=O)C1=NNC2C(=O)N(c3cccc(C)c3C)C(=O)C12 (centres undefined),103
O=c1c2cc3c(cc2nc(SCc2nc(-c4ccc(F)cc4)no2)n1CC1CCCO1)OCO3 (centres undefined),109
O=C(CSc1nc(NCC2CCCO2)c2ccccc2n1)NCc1ccccc1 (centres undefined),115
CS(=O)(=O)c1nc2ccc(NS(=O)(=O)c3cc(F)cc(F)c3)cc2s1,101
FC(F)(F)c1cccc(N2C(=S)N=C(Nc3ccccc3)C23CCCCC3)c1,106
Cc1cc(C(F)(F)F)nc(SCC(=O)Nc2ccccc2)c1C#N,108

Additional compounds follow:
compound,GIV Gai3 FP
Cc1ccccc1NC(=O)c1ccc2c3c(onc13)-c1ccccc1C2=O,113
CCOC(=O)N1CCN(c2ncnc3scc(-c4ccccc4)c23)CC1,116
CCOc1ccccc1N/C(SCc1cccc(F)c1)=C(/C#N)C(=O)NCc1ccccc1,103
CCN(CC)Cc1cc(NC2=NS(=O)(=O)c3ccccc32)ccc1OC(=O)c1ccc(OC)cc1,125
CN(C(=O)Cn1c(=O)c2ccccc2n(C)c1=O)C1CCCCC1,109
CCNc1cc(C)nc(N2CCN(S(=O)(=O)c3ccc(C)cc3)CC2)n1,110
COc1cc2c(cc1OC)C(C1=NC(C)(C)Cc3ccccc31)=NC(C)(C)C2,105
O=C(c1ccc(Cl)s1)N1CCC(Nc2ncnc3c2CCC3)C1 (centres undefined),98

(list continues)
compound,GIV Gai3 FP
O=C(Nc1ccccc1)N1CCC2(CC1)Nc1ccccc1-n1cccc12,109
N#Cc1ccc(-c2ccncc2)nc1SCC(=O)Nc1nc2ccccc2s1,106
CC(C)c1cc(C2CCCN2C(=O)c2cc(C3CC3)on2)no1 (centres undefined),105
Cc1nnc2sc(-c3ccc(CNS(=O)(=O)c4ccccc4)cc3)nn12,100
CCOC(=O)CSc1nc2sc(C(=O)OCC)c(C)c2c(=O)n1Cc1ccc(OC)cc1,108&105
Cc1sc2cc(C(=O)NCC3CC3)[nH]c2c1CN1CCCC1,104
O=C(NC1CCCc2ccccc21)c1cccc(Oc2cc(-c3ccccc3)ncn2)c1 (centres undefined),98
CC(=O)C1=NN(c2ccccc2[N+](=O)[O-])C2(S1)SC(c1ccc(C)cc1)(c1ccc(C)cc1)c1ccccc12 (centres undefined),102

Further results
compound,GIV Gai3 FP
Cn1c(=O)c2c(nc3n(-c4ccc5c(c4)OCCO5)c(-c4ccccc4)cn23)n(C)c1=O,99
O=C1c2sc3nnc(-c4ccccc4)c(=O)n3c2C(=O)N1c1ccc(Br)cc1,107
CCOc1cc(-c2nc3sc4c(c3c(=O)[nH]2)CCCC4)ccc1OS(=O)(=O)c1ccc(C)cc1,103
CCOC(=O)c1c(CNC(C)=O)n(CCBr)c2cc(Br)c(OC)cc12,103
CC(C)Oc1ccc(-c2noc(CCn3nc(-c4ccc5c(c4)OCO5)ccc3=O)n2)cc1,101
O=C(COc1ccc(Cl)cc1)Nc1ccccc1SCc1nnc(-c2ccccc2)o1,104
Cc1ccccc1N/C(SCc1ccccc1Cl)=C(/C#N)C(=O)NCc1cccs1,108
CNC(=O)Nc1ccc(C2(C(=O)Nc3ccc4c(c3)CCC4)CCC2)cc1,103

More entries follow.
compound,GIV Gai3 FP
COc1ccc(C)cc1S(=O)(=O)NCCc1sc2nc(-c3ccc(Cl)cc3)nn2c1C,97
Cc1ccc2nc(-c3ccc(Cl)cc3)cc(C(=O)N3CCOCC3)c2c1,104
CCN(c1ccc(F)cc1)S(=O)(=O)c1ccc2[nH]cc(C(=O)NCCCN3CCOCC3)c(=O)c2c1,105
CCCCC(=O)NC(c1ccc(OC)cc1)c1ccc2cccnc2c1O (centres undefined),105
CC1CCCCN1S(=O)(=O)c1cccc2nonc12 (centres undefined),100
C=CCn1c(=O)c(C(=O)Nc2nc(CC(=O)OCC)cs2)c(O)c2ccccc21,107
C=CCN(C)C(=O)c1cnn2c3c(cnc12)CCCCCC3,103
CC(=O)N1C(=O)C2(C(C#N)=C(N)Oc3n[nH]c(-c4ccncc4)c32)c2ccccc21 (centres undefined),104

(further entries)
compound,GIV Gai3 FP
COc1cccc(NC(=O)CNS(=O)(=O)c2cc(-c3noc(C)n3)ccc2C)c1,101
N#Cc1c2c(c(N3CCOCC3)n3c1nc1ccccc13)CCC2,123
Cc1ccc(NC(=O)c2c(NC(=O)c3ccccc3F)sc3c2CCCCC3)cc1,109
COc1ccc(N2CC(O)(c3ccc(C)cc3C)[N+]3=C2CCCC3)cc1 (centres undefined),104
CCOC(=O)CC(C(=O)OCC)C1SCC(=O)N1NC(=O)c1ccc2[nH]c(C)c(C)c2c1 (centres undefined),105
COc1ccc(/C=C2\C=C(c3ccccc3)N(c3ccc4ncccc4c3)C2=O)cc1Br,117
Cc1ccc(-c2nc(C3CCN(C(=O)Cc4ccc(Br)cc4)CC3)no2)cc1,101
CCOC(=O)C1=C(N)n2c(s/c(=C\c3ccc(C(C)C)cc3)c2=O)=C(C#N)C1c1ccc(C(C)C)cc1 (centres undefined),110

(continued)
compound,GIV Gai3 FP
COc1ccc(OC)c(NC(=O)c2cnn3c(C(F)(F)F)cc(-c4ccc(OC)c(OC)c4)nc23)c1,99
COc1ccc2oc(=O)c(-c3csc(Nc4ccc(Oc5ccc6ccccc6c5Cl)c(Cl)c4)n3)cc2c1,109
Cc1sc2cc(C(=O)NC3CC3)[nH]c2c1CN1CCCCC1,100
O=c1n(Cc2ccccc2)nc2c(S(=O)(=O)N3CCc4ccccc4C3)cccn12,112
CCNC(=O)c1cc2cc3ccc(Cl)cc3nc2o1,101
Cn1c(=O)sc2cc(S(=O)(=O)N3CCN(C(=O)c4cc5ccccc5[nH]4)CC3)ccc21,98
CCN(CC)S(=O)(=O)c1ccc(C(=O)Nc2c3c(nn2-c2ccccc2C)CS(=O)(=O)C3)cc1,105
CCc1ccc2c(c1)[C@H]1OCC[C@H]1C(c1cc(Br)ccc1OC)N2 (some centres undefined),100

(continued)
compound,GIV Gai3 FP
COc1cccc(C(=O)NCc2nc3cccnc3n2Cc2ccccc2)c1,104
N#CC1=C(N)N(c2ccc(Br)cc2F)C2=C(C(=O)CCC2)C1c1ccc([N+](=O)[O-])cc1 (centres undefined),122
O=S(=O)(c1cc(-c2ccno2)cs1)N(CCc1ccccc1)Cc1ccccc1,105
CCOC(=O)C1=C(N)Oc2cc(O)ccc2C1c1ccccc1Cl (centres undefined),108
Cn1nc(-c2ccccc2F)c2cc(C(=O)Oc3cccnc3)sc21,101
Cc1ccc(Sc2c([N+](=O)[O-])c(=O)n(C)c3ccccc23)cc1,116
O=C(NCc1cccnc1)c1nc(-c2ccc(N3CCCC3)cc2)no1,100
CN(C)c1ccc(/C=N/NC(=O)C2C(c3ccccc3)C(C(=O)N3CCOCC3)C2c2ccccc2)cc1 (centres undefined),110

Gathered by group: the entries above containing a furan ring, fused or not
compound,GIV Gai3 FP
Cc1ccc(C(=O)N/C(=C/c2ccc(N(C)C)cc2)C(=O)NCc2ccco2)cc1,107
Cc1ccc(OCCn2c(NC(=O)c3ccco3)nc3ccccc32)cc1,105
CCNC(=O)c1cc2cc3ccc(Cl)cc3nc2o1,101

(continued)
compound,GIV Gai3 FP
COc1ccc2c(c1)NC1(CCN(C(=O)Nc3ccc(OC)c(OC)c3)CC1)c1cccn1-2,105
Cc1ccc(-c2nc(CN3CCCC(C(=O)NC4CCCCC4)C3)no2)cc1 (centres undefined),98
COc1cccc(C2C(C#N)=C(N)OC3=C2C(=O)CCC3)c1OC(=O)c1ccco1 (centres undefined),109
CCOC(=O)C(NC(=O)c1ccccc1F)(Nc1sc2c(c1C#N)CCC(C(C)(C)C)C2)C(F)(F)F (centres undefined),103
COCC1=C(C(=O)OC)C(c2ccsc2)C(C#N)=C(N)O1 (centres undefined),105
CCOC(=O)C1=NN(c2ccc(Br)cc2)C2(S1)c1ccccc1C(c1cc(C)ccc1C)=NN2c1ccccc1 (centres undefined),117
COc1ccc(CSc2nccc3c2ccn3CC(=O)NCc2cccnc2)cc1,108
CCOCCOC(=O)C1=C(C)NC2=C(C(=O)CC(c3cccs3)C2)C1c1ccc(C(F)(F)F)cc1 (centres undefined),120

Next section.
compound,GIV Gai3 FP
Cc1ccc2c(c1)-c1c(ssc1=S)C(C)(C)N2Cc1ccccc1,109
N=c1c2cn[nH]c2nc(SCC(=O)c2ccc(Br)cc2)n1-c1ccc(Br)cc1,110
O=[N+]([O-])c1ccc(-c2nc(NCCN3CCOCC3)c3ccccc3n2)cc1,105
O=[N+]([O-])c1ccc(/C=C/CSc2nnc(-c3ccco3)n2-c2ccccc2)cc1,108
COc1ccc(C2CC(=O)C3=C(C2)NC(C)=C(C(=O)OCCOc2ccccc2)C3c2ccc(O)cc2)cc1 (centres undefined),109
CC1(C)CC(=O)C2=C(C1)OC1=C(C(=O)CC(C)(C)C1)C2c1ccccc1C(F)(F)F,106
COc1cc(OC)cc(C(=O)Nc2ccc(-c3ccc4ccccc4n3)cc2)c1,104
CCCc1ccc(S(=O)(=O)N2CCC(c3noc(-c4ccccc4)n3)CC2)cc1,98

Records listed so far marked active in GIV Gai3 FP:
compound,GIV Gai3 FP
CCCCCCCOc1ccc(C(c2c(C)[nH]n(-c3ccccc3)c2=O)c2c(C)[nH]n(-c3ccccc3)c2=O)cc1,82*

(more compounds)
compound,GIV Gai3 FP
O=C1CS(=O)(=O)C(c2cccc(F)c2)N1c1ccc(Oc2ccc(Cl)cc2)cc1 (centres undefined),104
O=C(CSc1nc2sc3c(c2c(=O)n1-c1ccccc1)CCCC3)N1CCOCC1,109
O=C(Nc1cccc(Cl)c1Cl)c1cc(S(=O)(=O)N2CCN(c3ccccc3)CC2)ccc1F,101
Cc1ccccc1CN1CCCNC1=O,97
COc1ccc(Br)cc1C1C(N2C(=O)c3cccc([N+](=O)[O-])c3C2=O)C(=O)N1c1ccc(Br)cc1 (centres undefined),107
